# KCNQ2 pot: potentiators of rat KCNQ2 potassium channel. AID 2239, 2010. Potassium voltage-gated channel subfamily KQT member 2 (Rattus norvegicus), O88943. B-score at 10 µM. hit rate 0.54% among 310,000. CHO-K1 KCNQ2, FluxOR thallium flux fluorescence; active compounds read high;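 active = fluorescence ratio B-score at least 3 SD of library B-scores, with initial fluorescence B-score within 3 SD, cut at about 5.3 in these data; same plate scores as AID 2156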;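 also: B-score of peak minus minimum over baseline fluorescence ratio after K+ and Tl+ stimulus; positive B-score means potentiation of KCNQ2 with more thallium influx and brighter signal; only the inactives scoring about 0 or higher are listed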
# Target sequence (O88943 whole entry, looked up): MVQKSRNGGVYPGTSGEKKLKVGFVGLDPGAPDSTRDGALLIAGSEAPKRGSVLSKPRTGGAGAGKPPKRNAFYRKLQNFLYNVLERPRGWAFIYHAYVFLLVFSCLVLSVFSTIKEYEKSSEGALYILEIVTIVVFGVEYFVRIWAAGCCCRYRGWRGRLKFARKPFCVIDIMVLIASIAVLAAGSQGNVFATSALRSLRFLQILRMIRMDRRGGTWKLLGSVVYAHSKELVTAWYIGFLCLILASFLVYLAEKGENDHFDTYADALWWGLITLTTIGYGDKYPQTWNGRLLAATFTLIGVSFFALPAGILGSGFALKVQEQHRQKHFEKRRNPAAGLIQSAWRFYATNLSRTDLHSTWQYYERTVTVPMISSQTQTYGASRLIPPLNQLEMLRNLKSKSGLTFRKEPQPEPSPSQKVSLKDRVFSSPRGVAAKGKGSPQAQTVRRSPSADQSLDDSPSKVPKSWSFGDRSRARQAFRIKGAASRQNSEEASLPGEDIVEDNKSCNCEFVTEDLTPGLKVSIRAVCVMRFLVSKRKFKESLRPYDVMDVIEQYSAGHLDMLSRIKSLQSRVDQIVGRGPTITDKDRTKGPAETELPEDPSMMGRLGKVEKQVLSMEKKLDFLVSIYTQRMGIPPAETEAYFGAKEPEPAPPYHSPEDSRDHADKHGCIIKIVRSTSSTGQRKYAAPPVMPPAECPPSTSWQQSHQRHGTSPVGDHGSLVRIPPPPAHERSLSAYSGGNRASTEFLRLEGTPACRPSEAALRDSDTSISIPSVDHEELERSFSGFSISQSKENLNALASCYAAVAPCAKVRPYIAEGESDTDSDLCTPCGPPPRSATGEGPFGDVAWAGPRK
# KCNQ2 pot baseline: further read-out of KCNQ2 pot, marked with its call; B-score; compound at 10 µM; measured here: initial fluorescence intensity artifact check;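 brightness before thallium and not channel activity; 0 = typical well and far values either way flag optical interference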
# Numbers without * were called inactive.
# Each structure is followed by: KCNQ2 pot	KCNQ2 pot baseline
> CCN(CC(=O)Nc1ccccc1OC)C(=O)C1CCC1
  0.84	0.16
> CCOc1ccccc1NC(=O)C1CCCN1C(=O)OCc1ccccc1 (stereo unspecified)
  0.67	0.26
> O=C(NC(=S)Nc1ccc(-c2ccc(CO)o2)cc1)c1cccs1
  0.02	1.28
> CN(CC(=O)Nc1c(Cl)cccc1Cl)C(=O)c1n[nH]c2ccccc12
  1.59	-0.04
> Cc1ccc(NS(=O)(=O)c2ccc(Cl)c(NC(=S)NC(=O)C3CCCCC3)c2)cc1Cl
  0.18	-2.51
> CC(=O)Nc1ccc(S(=O)(=O)N2CCN(c3ccc([N+](=O)[O-])c(NCCN4CCOCC4)c3)CC2)cc1
  0.03	0.33
> CC12CCC(C(=O)NCc3ccc4c(c3)OCO4)(CC1=O)C2(C)C (stereo unspecified)
  1.1	0
> OCCOCCNc1ncnc2c1cnn2-c1ccc(Cl)cc1
  1.11	-0.03
> Cc1[nH]c2ccccc2c1C(=O)CSC(=S)N(C)C1CCCCC1
  0.3	-0.05
> O=C(/C=C/Nc1ccccc1OC(F)(F)F)C(F)(F)F
  0.02	-1.07
> O=C(NCCCNC(=O)c1ccc(F)cc1)c1ccc(F)cc1
  0.9	0.01
> CC1CCN(C(=S)NCCc2ccccc2)CC1
  0.09	0.68
> CC(C)Sc1nc2c(c(=O)n1C)SC(C)C2 (stereo unspecified)
  1.23	0.04
> CCN1C(=O)c2ccccc2S(=O)c2ccc(C(=O)N3CCCC3)cc21 (stereo unspecified)
  0.21	0.17
> COc1cc(/C=C2\SC(=O)NC2=O)ccc1Oc1ccc([N+](=O)[O-])cn1
  2.37	0.69
> COc1ccc(CN2CCCCCC2)cc1OC
  0.01	1.46
> C=CCn1c(=O)/c(=C2/Sc3ccccc3N2CC)s/c1=C1/C(=O)NN=C1C
  2	-0.56
> O=C(CSc1nc(-c2ccccc2)c(-c2ccccc2)o1)NCCCO
  1.51	-1.13
> CCCN1CNC(=S)N(c2cc(C)ccc2C)C1
  1.44	-0.93
> Cc1cccc(N(C)S(=O)(=O)c2ccc3[nH]c(=O)c(=O)[nH]c3c2)c1
  0.3	0.02
> COc1cc(NS(=O)(=O)c2ccc(NC(=O)C34CC5CC(CC(C5)C3)C4)cc2)ncn1
  0.06	-0.78
> Cc1cc2occ(CC(=O)N(CC(C)C)c3c(N)n(Cc4ccccc4)c(=O)[nH]c3=O)c2cc1C
  0.56	0.56
> COC(=O)c1cccc(Cn2nc(C)c([N+](=O)[O-])c2C)c1
  0.07	-0.02
> COC(=O)c1sc(NC(=O)c2ccc([N+](=O)[O-])o2)c(C#N)c1C
  1.34	-1.75
> CCOc1cccc(NC(=O)c2cccc(F)c2)c1
  4.6	-1.53
> C/C(=N\N1CCN(C2c3ccccc3-c3ccccc32)CC1)c1ccco1
  2.24	-0.06
> CC(C)OCCCNC(=O)CN1C(=O)COc2ccc(S(=O)(=O)N3CCCCCC3)cc21
  1.24	2.21
> Fc1cnc(N2CCc3ccccc32)nc1N1CCc2ccccc21
  0.28	1.9
> Cc1ccccc1C(=O)NCCCNC(=O)c1ccccn1
  0.25	-1.36
> Cc1ccccc1NC(=O)C1CCN(S(=O)(=O)c2ccc3c(c2)NC(=O)C(C)S3)CC1 (stereo unspecified)
  0.92	0.13

# (list continues)
# Each structure is followed by: KCNQ2 pot	KCNQ2 pot baseline
> CC1CCCCC1NC(=S)NC(=O)c1ccccc1Br (stereo unspecified)
  0.32	0.33
> O=C(Cc1cccs1)Nc1nnc(SCc2ccc(F)cc2)s1
  0.04	-1.87
> CCOC(=O)C1=C(Nc2ccccc2)OCC1=O
  1.81	-1.56
> COc1ccc(C(=O)NCC(C)(C)CNC(=O)c2ccc(OC)c(OC)c2)cc1OC
  0.36	-2.24
> Cc1ccc(CNC(=O)Cn2nnc3ccccc3c2=O)cc1
  2.05	-0.9
> CCOC(=O)C1CCCN(c2c(Nc3cc(C)cc(C)c3)c(=O)c2=O)C1 (stereo unspecified)
  1.03	-1.7
> COc1c(F)c(F)c(C(=O)Nc2ccc(-c3nc4ccccc4[nH]3)cc2)c(F)c1F
  1.21	-2.45
> Cn1c(Cc2nc3ccccc3n2C)nc2ccccc21
  0.03	1.72
> O=C(CSCc1ccccc1Br)NC1CC1
  0.82	-2.16
> CCc1cc2c3c([nH]c2cc1S(=O)(=O)N1CCC2(CC1)OCCO2)CCCC3=O
  1.58	-0.02
> CCOc1cc(C(=O)N2CCCC2)cc(OCC)c1OCC
  1.42	0.57
> CCCCCCCCCC[n+]1cccc(C(=O)N(CC)CC)c1
  1.63	-1.67
> CC(NCc1ccc2c(c1)OCO2)C(=O)N1CCc2ccccc21 (stereo unspecified)
  0.37	0.56
> Cc1ccc(C)c(NC(=O)c2ccc[n+](Cc3ccc([N+](=O)[O-])cc3)c2)c1
  0.41	-2.28
> CC(C)[C@@H](C(=O)NCC1CCCO1)N1C(=O)N2CCc3c([nH]c4ccccc34)[C@@]2(C)C1=O (stereo partly specified)
  0.57	0
> CCc1noc(C)c1C(=O)Nc1ccccc1C(C)(C)C
  1.16	0.12
> O=C1CCN(Cc2ccccc2)CCN1[C@H](CO)c1ccccc1
  0.41	1.43
> CCOC(=O)CNC(=O)N1CCCC(C(=O)c2cc(C)c(OC)c(C)c2)C1 (stereo unspecified)
  1.38	-1.24
> CSc1cccc(CN2CCCC(CNC(=O)c3ccco3)C2)c1 (stereo unspecified)
  0.97	-0.48
> CCC1C(=O)C(C)(C)C(=O)OC1c1ccc([N+](=O)[O-])cc1 (stereo unspecified)
  0.06	-0.02
> CC1CCCCC1NC(=O)CC1Oc2ccccc2NC1=O (stereo unspecified)
  0.08	-1.76
> CCOCC(=O)Nc1nnc(SCCOC)s1
  0.52	1
> CCc1ccc2oc(-c3cc(N)ccc3Cl)nc2c1
  0.46	-0.04
> COc1ccc(C(=O)O/N=C(/c2ccccc2)c2ccncc2)cc1
  1.77	1.05
> CC(C)N(C(=O)Cn1c(SCC(=O)NC2CC2)nc2ccccc21)C(C)C
  0.72	0.17
> N#CCc1c(C#N)c(N)nc(N2CCOCC2)c1C#N
  0.33	-0.38
> O=C(O)c1ccc(NCc2ccc(Br)cc2)cc1
  1.61	-1.37
> O=C(O)CSc1c2ccccc2cc2ccccc12
  1.32	0.02
> O=c1cc(C(F)(F)F)[nH]c2ccc(OC(F)(F)F)cc12
  2.27	1.47
> CC(C)N1CCN(Cc2ccccc2-c2ccco2)CC1CCO (stereo unspecified)
  0.87	0.12

# Other compounds follow:
# Each structure is followed by: KCNQ2 pot	KCNQ2 pot baseline
> Cc1noc(C)c1CSCC(=O)OCc1nc2ccccc2c(=O)n1CC#N
  0.14	1.63
> CC(C)C1N(C(=O)CN2CCCCC2)CCN1S(=O)(=O)c1ccccc1 (stereo unspecified)
  0.84	-0.08
> CCOc1ccc(C(C)NC(=O)C2CCCC2)cc1 (stereo unspecified)
  1.54	1.59
> O=C(c1cccc(Cl)c1)N1CCN(c2ncccn2)CC1
  1.36	-0.22
> CC1CCN(Cc2nnnn2CCCC(=O)NCCN2CCOCC2)CC1
  1.19	0.36
> Brc1ccc(OCCCCCN2CCOCC2)cc1
  2.46	-1.33
> Cn1c(=O)c2c(nc(N3CCOCC3)n2C/C=C/c2ccccc2)n(C)c1=O
  0.45	0.71
> c1ccc(CN2CCN(CCOCCOc3ccc4c(c3)CCC4)CC2)cc1
  1.79	-3.18
> CCOC(=O)C(C)Oc1cccc2c(=O)n(CC(=O)NCCc3ccc(OC)c(OC)c3)ccc12 (stereo unspecified)
  0.63	6.96
> CCN1CCN(CC(=O)N2N=C(c3ccc(OC)cc3)CC2c2ccc(OC)cc2)C(=O)C1=O (stereo unspecified)
  0.08	-0.32
> COc1ccc(C2CC(=O)C(CS(=O)(=O)c3ccccc3)C(=O)C2)cc1 (stereo unspecified)
  0.21	-0.36
> COc1cccc2c(=O)c3cccc(N)c3[nH]c12
  0.13	-0.43
> O=C(Nc1ccccc1N1CCOCC1)C1CCN(S(=O)(=O)c2ccccc2F)CC1
  0.67	-0.47
> Cc1nn(S(=O)(=O)c2ccc(F)cc2)c(C)c1S(=O)(=O)N1CCCCC1
  1.04	0.3
> O=C(Cn1c(C(F)(F)F)nc2ccccc21)NCCCN1CCOCC1
  0.22	-0.78
> CC(C)(C)c1ccc(OCCSc2nc3ccccc3n2CC(=O)O)cc1
  3.05	-0.9
> Cc1c(O)c(CN(C)C)cc2c1oc(=O)c1ccccc12
  1.15	-0.26
> Cc1ccc(NS(=O)(=O)c2ccc(-n3cccn3)cc2)nc1
  0.46	-1.47
> CCN(Cc1ccccc1)S(=O)(=O)c1ccc(OC)c2ncccc12
  0.02	-1.9
> CCc1ccc(NC(=O)C2CCN(S(=O)(=O)c3c(C)noc3C)CC2)cc1
  0.2	0.26
> CCN(c1ccccc1)S(=O)(=O)c1ccc(N)c(OC)c1
  0.46	0
> COCCCn1c(SCC(=O)NC(C)C)nnc1-c1ccccc1
  1.18	0.33
> C#CCn1c(=NC(=O)c2ccco2)sc2cccc(Cl)c21
  1.6	0.38
> CC(=O)N=C1SC2CS(=O)(=O)CC2N1c1cccc(Cl)c1Cl (stereo unspecified)
  0.78	-0.63
> COc1ccc(C=O)cc1OC1C=CCCC1 (stereo unspecified)
  0.05	-0.01
> CCOc1ccccc1N(C(C)=O)S(=O)(=O)c1ccc(Cl)cc1
  0.33	-1.51
> CCCOc1ccc(C(=O)NCc2ccco2)cc1
  1.67	0.1
> CCn1c(-c2cccc(S(=O)(=O)N3CCCC3)c2)n[nH]c1=S
  0.11	-0.71
> N#CC1=C(N)SC(C(=O)c2ccccc2)C1c1cccs1 (stereo unspecified)
  1.02	3.22
> c1ccc(-c2nnc3ccc(N4CCCC4)nn23)cc1
  0.47	-1.53

# Compounds from the list above containing a tert-butyl group (2):
# Each structure is followed by: KCNQ2 pot	KCNQ2 pot baseline
> CCc1noc(C)c1C(=O)Nc1ccccc1C(C)(C)C
  1.16	0.12
> CC(C)(C)c1ccc(OCCSc2nc3ccccc3n2CC(=O)O)cc1
  3.05	-0.9

# More compounds
# Each structure is followed by: KCNQ2 pot	KCNQ2 pot baseline
> CN(C)c1nc(OCCNC(=O)Nc2ccccc2)nc(N2CCCCC2)n1
  0.13	-1.29
> Cc1ccccc1-n1c(SC(C)C(=O)N2CCN(C)CC2)nc2ccccc2c1=O (stereo unspecified)
  0.04	-0.93
> CN(c1ccccc1C(=O)N1CCN(c2cccc(Cl)c2)CC1)S(C)(=O)=O
  0.51	-3.13
> COCCOC(=O)C1=C(C)NC(=O)N(C(C)=O)C1c1ccc(Cl)cc1 (stereo unspecified)
  0.11	0.02
> OCC[C@@H]1C[C@@H](O)[C@H](O)[C@@]2(CCCO2)O1
  0.67	0.36
> O=C(Nc1nccs1)C1CCN(S(=O)(=O)c2ccc(Cl)c(C(F)(F)F)c2)CC1
  0.1	-0.28
> CCCC(=O)Nc1ccc(C(=O)O)cc1NC(=O)CCC
  0.91	0.66
> CCOC(=O)C1(CCc2ccccc2)CCN(C(=O)CCn2cncn2)CC1
  0.15	-0.71
> c1ccc(-n2cnc3cc(NCc4ccco4)ccc32)cc1
  0.43	0.52
> O=[N+]([O-])c1ccccc1/C=N/n1c(C(F)(F)F)n[nH]c1=S
  1.34	-2.77
> CCOC(=O)/C(C#N)=C/c1cccc(F)c1
  0.51	-0.5
> CCOC(=O)CSc1nnc(-c2cccs2)n1-c1ccccc1
  0.01	0.42
> CCc1ccc(S(=O)(=O)Nc2ccc(C)c(NS(C)(=O)=O)c2)cc1
  0.68	0.33
> CN(C(=O)c1ccccc1)C1(C)CCS(=O)(=O)C1 (stereo unspecified)
  0.07	-1.96
> Cc1ccc(CNS(=O)(=O)c2cc3c(cc2C)NC(=O)CO3)cc1
  1.24	-1.76
> O=C(CCN1C(=O)C2C3C=CC(C3)C2C1=O)N1CCN(c2ccc([N+](=O)[O-])cc2)CC1 (stereo unspecified)
  1.34	2.44
> COc1ccc(OC)c(/C=N/NC(=O)CCCC(=O)Nc2cccc(Br)c2)c1
  0.02	0.63
> COCCNC(=O)c1noc2c1CCc1cc(OC)ccc1-2
  1.27	2.1
> Cn1cc(CC(=O)Nc2cccc(C#N)c2)c2ccccc21
  2.77	-4.12
> O=C(c1ccc2c(=O)n(Cc3ccc(Cl)cc3)c(=S)[nH]c2c1)N1CCOCC1
  2.63	1.28
> CSc1ccccc1NC(=O)c1c(Br)cnn1C
  1.72	-0.73
> CN(C)C(CNC(=O)c1ccc2nc[nH]c2c1)c1ccccc1 (stereo unspecified)
  3.08	-0.19
> CCOC(=O)c1cc(S(=O)(=O)N2CCN(C3CCCCC3)CC2)cn1C
  0.32	0.33
> O=C(NN1C(=O)C2C3C=CC([C@@H]2C1=O)C31CC1)c1ccccc1 (stereo partly specified)
  0.13	-1.93
> CCc1ccc(N2CC(C(=O)Nc3cc(C)on3)CC2=O)cc1 (stereo unspecified)
  0.12	0.86
> C[N+]1(C)CCC(=C2c3ccccc3CC(=O)c3sccc32)CC1
  0.65	-0.85
> CCCCN(C)C(=O)CS(=O)(=O)Cc1nc(-c2cccc(OC)c2)oc1C
  0.91	1.44

# 7 compounds drawn at random from the list so far:
# Each structure is followed by: KCNQ2 pot	KCNQ2 pot baseline
> c1ccc(-n2cnc3cc(NCc4ccco4)ccc32)cc1
  0.43	0.52
> CCCCN(C)C(=O)CS(=O)(=O)Cc1nc(-c2cccc(OC)c2)oc1C
  0.91	1.44
> Cn1cc(CC(=O)Nc2cccc(C#N)c2)c2ccccc21
  2.77	-4.12
> C[N+]1(C)CCC(=C2c3ccccc3CC(=O)c3sccc32)CC1
  0.65	-0.85
> O=C(Nc1nccs1)C1CCN(S(=O)(=O)c2ccc(Cl)c(C(F)(F)F)c2)CC1
  0.1	-0.28
> CCc1ccc(N2CC(C(=O)Nc3cc(C)on3)CC2=O)cc1 (stereo unspecified)
  0.12	0.86
> CCOC(=O)C1(CCc2ccccc2)CCN(C(=O)CCn2cncn2)CC1
  0.15	-0.71

# Source: PubChem

# Only part of the results is shown, so the mix of outcomes need not match the whole.
